A1 inh = caspase 3/7 activation in MEF A1-2A-BIM cells, primary screen, A1 inhibitor project, cell-based, luminescence, HTS. actives 0.066% (n = 330,000). Caspase-Glo 3/7 luminescence, 3 h; percent of clofoctol response, vehicle zero. AID 2462, 2010. caspase activation, % (concentration not given with the values);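 active means over half of replicate activation scores above 10%, or exactly half above 10 with the replicate mean above 10; inconclusive means replicate mean below 10 yet half the replicates above 10; inactive means over half of replicates below 10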;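 further: wells of about 30 µL received 50 nL stock; many hits fall short of the cut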
UCH37 DUB inh = inhibitors of human UCH37 deubiquitinase, primary screen, biochemical, Ub-AMC cleavage, fluorescence; AID 588478, 2011; actives 0.33% (n = 330,000); inhibition, % (concentration not given with the values); purified proteasome/UCH37;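 active means mean of two replicates above 20%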;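 further: 0% = compound-free wells with enzyme and 100% = wells lacking proteasome; stock transfer was 100 nL into about 20 µL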
Target sequence (Q9Y5K5 whole entry, looked up): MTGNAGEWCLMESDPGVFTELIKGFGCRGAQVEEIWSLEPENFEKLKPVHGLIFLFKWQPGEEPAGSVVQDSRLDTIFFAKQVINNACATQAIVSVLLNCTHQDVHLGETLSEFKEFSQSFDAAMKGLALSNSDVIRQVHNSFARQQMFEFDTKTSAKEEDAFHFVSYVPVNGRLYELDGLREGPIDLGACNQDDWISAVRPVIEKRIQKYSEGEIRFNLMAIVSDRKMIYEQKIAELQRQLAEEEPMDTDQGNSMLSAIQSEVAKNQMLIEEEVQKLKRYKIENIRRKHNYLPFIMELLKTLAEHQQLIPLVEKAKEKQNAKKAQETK
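system = Proteasome-associated human UCH37 deubiquitinase | amount = 0.15 nM proteasome as dispensed | medium = pH 7.4 Tris-HCl (50 mM) with ovalbumin, ATP-MgCl2, DTT | incubation = 30 min preincubation with enzyme, 25 min cleavage at room temperature | detection = AMC fluorescence 355/460 nm | read-out basis = percent inhibition | controls = no-proteasome and no-compound wells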
LANA-H2B inh = blockers of LANA interaction with H2A/H2B – biochemical, FP readout, HTS, primary screen. Protein LANA1 (Human herpesvirus 8 type P (isolate GK18)), Q9QR71. cell-free LANA-H2A/H2B peptide, fluorescence polarization. inhibition, % (no concentration beside the values). actives 0.6% (n = 320,000); in the data active means inhibition mostly above about 10%, no sharp cut-off; inactive means mostly below about 6.7%;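 further: stock transfer was 7.5 nL into about 10 µL; 0% = median of vehicle wells and 100% = median of positive control wells; one replicate is shown; the record names a cut of 25% in any replicate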
Vif TR-FRET = inhibitors of Vif binding to APOBEC3G peptide, primary screen, biochemical, TR-FRET, GST-Vif 1-94, biotin-A3G peptide, dose response retest (AID 1117319); Virion infectivity factor (Human immunodeficiency virus type 1 group M subtype B (isolate …; TR-FRET GST-Vif / biotin-A3G peptide binding; higher % means a stronger effect; test concentration not given here; strong numbers were not always called active; one-dose inhibition, %; IC50 in µM for titrated hits; actives 0.57% (n = 260,000);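 active means above the screen mean plus three standard deviations and confirmed in dose response; inconclusive means results disagree or hit not tested in dose response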;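 further: Vif residues 1-94 fused to GST binding biotinylated APOBEC3G peptide 110-148; 0% = full assay without inhibitor and 100% = GST in place of GST-Vif; retest series ran down from 100 µM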
Beta2AR agonist = beta2AR agonists driving receptor internalization, primary screen, cell-based, FAP fluorogen, flow cytometry; actives 0.43% (n = 340,000); response, % (concentration not given with the values); Am2.2-beta2AR cells; reference of the scale not given here; Beta-2 adrenergic receptor (Homo sapiens), P07550;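 active means response above a set limit, near 3 SD of response in nonfluorescent compounds, cut at about 42% in these data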;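 further: stock transfer was 100 nL into about 11 µL; a reference agonist was the positive control; negative values mostly stem from fluorescent compounds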
HNF4A DNA FP = change in binding of human HNF4A to DNA, primary screen, biochemical, fluorescence polarization, FITC-DNA | actives 0.3% (n = 360,000) | AID 1224865, 2016 | activity change, % at 10 µM | 1 h; in the data active means activity change above about 30%, passing the limit was not always enough;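 further: controls were the assay level and a saturating level of protein; the project sought stronger binding though the title names inhibitors; some compounds called inactive have numbers as strong as hits; positive values seem to mean higher polarization but the record does not say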
Target sequence (P41235 whole entry, looked up): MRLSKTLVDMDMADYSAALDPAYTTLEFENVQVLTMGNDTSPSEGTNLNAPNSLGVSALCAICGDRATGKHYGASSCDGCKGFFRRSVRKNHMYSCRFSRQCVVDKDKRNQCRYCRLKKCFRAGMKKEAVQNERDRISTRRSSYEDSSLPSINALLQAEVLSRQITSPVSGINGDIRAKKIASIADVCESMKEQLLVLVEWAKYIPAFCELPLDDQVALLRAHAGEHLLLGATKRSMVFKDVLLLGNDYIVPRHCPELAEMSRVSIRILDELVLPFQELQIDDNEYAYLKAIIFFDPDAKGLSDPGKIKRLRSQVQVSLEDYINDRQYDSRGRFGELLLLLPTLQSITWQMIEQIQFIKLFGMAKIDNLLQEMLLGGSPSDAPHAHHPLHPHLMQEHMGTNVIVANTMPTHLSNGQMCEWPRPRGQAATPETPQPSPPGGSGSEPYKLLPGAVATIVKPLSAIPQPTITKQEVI
E coli growth = E. coli growth inhibition, primary screen, OD600; actives 0.21% (n = 330,000); OD600 absorbance (no concentration beside the values); Escherichia coli growth, 23 h; stronger effect = lower value;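 active means OD600 absorbance below the run mean of sample wells minus 3.6 SD, in any replicate, cut at about 0.56 in these data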;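 further: stock transfer was 300 nL into about 60 µL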
* marks the source's active call; other numbers are inactive results; ? = inconclusive; / = no result given; & = joins results of further samples.

SMILES | A1 inh | UCH37 DUB inh | LANA-H2B inh | Vif TR-FRET | Beta2AR agonist | HNF4A DNA FP | E coli growth
Cc1ccc(S(=O)(=O)N2CCN(c3nc(C)c4c(c3C#N)CC(C)(C)OC4)CC2)cc1 | / | -11 | / | -1%&-5% | 5 | 1.9 | 0.79
CCN(C(=O)CSc1nccn1C)c1cccc2ccccc12 | 1.6 | 0.5 | -1.7 | 1% | -6 | -3.4 | 0.64
O=C(c1ccc2nc(Cc3cccc(Cl)c3)oc2c1)N1CCC(O)CC1 | 0.4 | 0.3 | 7.2 | -1% | -4 | -1.3 | 0.69
CCC(C)N(C(=O)COC(=O)c1nc(Cl)ccc1Cl)C1CCS(=O)(=O)C1 (stereo not drawn) | 0.1 | 1.7 | -1.0 | -13% | -5 | -0.8 | 0.72
CCN1CCSc2ccc(C(=O)NCc3cccc(Br)c3)cc21 | ? | -106 | 3.4 | / | -4 | 0.8 | 0.75
CC(NCc1cccc(OCc2ccccc2)c1)C(O)c1ccccc1 (stereo not drawn) | 0.5 | 6.6 | 1.0 | 0% | 4 | 4.5 | 0.61
COc1ccccc1N1CCN(C(=O)c2ccc(CS(=O)(=O)c3ccccc3OC)o2)CC1 | / | 3.1 | -5.3 | 22% | 11 | 0.7 | 0.65
CC(Sc1ccc(S(=O)(=O)N2CCOCC2)cn1)C(=O)Nc1ccc(Cl)cc1Cl (stereo not drawn) | 0.2 | 5.3 | 24* | / | -17 | 5.2 | 0.69
Cc1c(C(=O)Nc2cccc([N+](=O)[O-])c2)sc2ncn(CC(=O)N3CCOCC3)c(=O)c12 | 0.5 | 2.4 | -0.6 | 0% | -2 | -0.7 | 0.59
CCOC(=O)c1sc(NC(=O)CSc2nc3c(cc2C#N)CCCCC3)c(C#N)c1C | -1.3 | -2.9 | -3.7 | -3% | 4 | 7.2 | 0.71
CNC(=O)c1ccc(NC(=O)CC2SC(N3CCCC3)=NC2=O)cc1 (stereo not drawn) | -0.1 | -2.8 | 50* | 5% | -2 | 2.1 | 0.71
CC12CN3CC(C)(CN(C1)C3c1ccc(F)cc1)C2 (stereo not drawn) | 0.2 | 0.9 | -1.2 | 26% | 2 | -9.6 | 0.69

Overlap with the part before: 3 compounds, followed by the next part.
SMILES | A1 inh | UCH37 DUB inh | LANA-H2B inh | Vif TR-FRET | Beta2AR agonist | HNF4A DNA FP | E coli growth
CCOC(=O)c1sc(NC(=O)CSc2nc3c(cc2C#N)CCCCC3)c(C#N)c1C | -1.3 | -2.9 | -3.7 | -3% | 4 | 7.2 | 0.71
CNC(=O)c1ccc(NC(=O)CC2SC(N3CCCC3)=NC2=O)cc1 (stereo not drawn) | -0.1 | -2.8 | 50* | 5% | -2 | 2.1 | 0.71
CC12CN3CC(C)(CN(C1)C3c1ccc(F)cc1)C2 (stereo not drawn) | 0.2 | 0.9 | -1.2 | 26% | 2 | -9.6 | 0.69
CCN1CCCC1Cn1cnc2c([nH]c3cc(OC)ccc32)c1=O (stereo not drawn) | 0.2 | -3.6 | 3.1 | 3% | 1 | -1.1 | 0.72
CCCCOP(=O)(OCCCC)C(Nc1ccc(C(=O)OCC)cc1)c1ccncc1 (stereo not drawn) | 0.2 | -1.4 | -4.6 | -1% | -8 | 0.1 | 0.71
COc1ccccc1-c1c(C)nn2c(N)c(-c3ccccc3)cnc12 | 0.4 | -36 | -1.7 | -3% | 4 | -0.1 | 0.67
O=S(=O)(NNc1ncc(C(F)(F)F)cc1Cl)c1ccccc1 | / | 2.6 | / | / | -1 | -0.8 | 0.68
COc1ccc([N+](=O)[O-])cc1/C=N/NC(=O)CNC(=O)c1cccc(F)c1 | -0.1 | / | 4.6 | 18% | 1 | -2.0 | /
COc1ccc(NC(=O)Nc2nnc(N3CCCCC3C)s2)cc1OC (stereo not drawn) | -0.3 | 8.4 | -2.5 | 22% | 1 | 0.1 | 0.74
Cc1cc(NC(=O)C(C)SCC(=O)Nc2ccccc2C(C)(C)C)no1 (stereo not drawn) | 0.0 | -0.7 | 2.8 | 1% | 2 | -2.6 | 0.69
COc1ccc(C2SCC(=O)N2c2nc3ccccc3s2)cc1 (stereo not drawn) | -0.1 | 2.4 | -2.1 | 30% | -3 | 4.0 | 0.72
Cc1cccc(C(C)C)c1NC(=O)C1CN(S(=O)(=O)c2ccccc2)CCN1S(=O)(=O)c1ccccc1 (stereo not drawn) | 0.6 | 1.9 | 0.9 | 11% | 6 | -2.4 | 0.71
CSCC[C@H](NC(=O)OC(C)(C)C)C(=O)NCC1CCC(C(=O)N[C@@H](Cc2ccccc2)C(=O)O)CC1 (stereo partly drawn) | 1.0 | -1.9 | 2.9 | -3% | -4 | 8.1 | 0.66
CCOc1ccc(NCC(=O)Nc2ccc(C)cc2C)cc1 | 0.9 | 1.6 | 0.1 | ? | 3 | 2.2 | 0.71
O=C(c1ccccc1)c1nc2ccccc2[nH]c1=O | 1.1 | 6.4 | 1.1 | 1% | -16 | 0.8 | 0.66
Cc1c(Cl)cnc(NC(=O)COC(=O)c2ccc(S(=O)(=O)NCc3ccco3)cc2)c1Cl | 0.3 | 0.4 | -4.9 | / | -5 | -9.8 | 0.73
COc1ccc(C2NS(=O)(=O)OCC2C)cc1 (stereo not drawn) | 0.5 | -0.1 | -3.1 | / | 0 | -1.6 | /
COc1ccc(CN(C)S(=O)(=O)c2c(C)noc2C)cc1OC | 0.4 | -0.3 | 2.1 | -5% | 4 | 2.3 | 0.69
C/C(=N\O)C1(C)N(O)C(C)(C)C(c2ccco2)=[N+]1[O-] (stereo not drawn) | 0.5 | / | -2.2 | / | -8 | 1.7 | /
CCCCN(CCCC)CCCNC(=O)CN1C(=O)COc2ccc(S(=O)(=O)N3CCC(C)CC3)cc21 | 0.1 | 0.1 | 0.7 | / | 7 | 2.1 | 0.68
N#CC1=C2N=C(N)c3ccccc3N2C2=C(C(=O)CCC2)C1c1ccc(F)cc1 (stereo not drawn) | 0.2 | 3.1 | -2.4 | ? | 2 | -3.8 | 0.68
CS(=O)(=O)N(Cc1ccc(C(=O)Nc2ccccc2Sc2ccccc2)cc1)c1ccccc1 | -0.8 | -1.0 | -0.1 | -2% | 7 | 0.4 | 0.73
CC1CCN(CC(=O)N2CC(=O)Nc3ccccc32)CC1 | 1.9 | 5.0 | -6.0 | 0% | -11 | 3.5 | 0.73
Cn1cc(-c2nc3ccccc3[nH]2)c2ccccc21 | -11 | -24 | -1.0 | -2% | 2 | 1.6 | 0.68
CN(C)CC1C2CCC(C2)C1O (stereo not drawn) | / | 0.8 | / | -8% | 2 | 0.6 | 0.72
Cc1ccc([N+](=O)[O-])cc1NC(=O)Cc1ccc(F)cc1 | -0.1 | 2.7 | -1.6 | 4% | 0 | 4.0 | 0.69
COc1ccc(NC(=S)N/N=C/c2cccn2Cc2ccccc2F)cc1 | -0.7 | / | -3.3 | 1% | -9 | -2.6 | /
CCOc1ccccc1NC(=O)/C=C/c1ccccc1[N+](=O)[O-] | -1.1 | 6.8 | 5.2 | / | -16 | 0.8 | 0.68
CCOC(=O)C(NC(=O)CC)(Nc1cc(C)on1)C(F)(F)F (stereo not drawn) | 1.4 | 1.4 | -1.3 | 1% | 9 | -0.4 | 0.78
CCC(=O)Nc1ccc(C(=O)N/N=C/c2ccc([N+](=O)[O-])cc2)cc1 | 0.5 | / | / | / | -14 | -2.0 | /
CCc1cccc2c(C(=O)CN3C(=O)NC4(CCCCC4)C3=O)c[nH]c12 | 0.8 | 1.2 | 1.5 | -12% | 8 | -0.1 | 0.65
C=CCNC(=O)/C=C/c1c(F)cccc1Cl | 0.2 | 0.9 | -3.4 | 11% | 0 | 4.4 | 0.68
Cc1cc(N2CCOCC2)n2nc(C)c(-c3ccccc3)c2n1 | 1.5 | 1.7 | 1.4 | 0% | -6 | 3.6 | 0.69
COc1ccc(N(CC(=O)NC2CCCCC2)C(=O)CCC(=O)Nc2nc(C)cs2)cc1 | 0.4 | 1.6 | -0.5 | / | 2 | -3.0 | 0.64
COC(=O)CN(c1ccccc1)S(=O)(=O)c1cc(Br)ccc1OC | 1.9 | -0.3 | -2.9 | ? | 0 | -0.1 | 0.61
COc1ccc(C(=O)C2CCCN(S(=O)(=O)c3ccc(C(C)=O)cc3)C2)c(C)c1 (stereo not drawn) | 0.0 | -0.4 | -1.7 | / | -7 | 3.5 | 0.73
O=C(Cn1nc(-c2ccccc2Cl)ccc1=O)Nc1ccccc1-c1ccccc1 | -1.1 | 6.5 | -4.3 | -16% | 0 | -6.2 | 0.71
CCOCCn1c(N2CCCC2)nc2c1c(=O)n(C)c(=O)n2C | -0.7 | 2.7 | 4.6 | / | 2 | 1.7 | 0.7
CCCN1CCC(Oc2cccc(C(=O)NCCc3ccccc3)c2)CC1 | 1.0 | 0.3 | -0.3 | / | -5 | -3.7 | 0.69

Four compounds picked at random from those above, as already listed:
SMILES | A1 inh | UCH37 DUB inh | LANA-H2B inh | Vif TR-FRET | Beta2AR agonist | HNF4A DNA FP | E coli growth
COc1ccc(N(CC(=O)NC2CCCCC2)C(=O)CCC(=O)Nc2nc(C)cs2)cc1 | 0.4 | 1.6 | -0.5 | / | 2 | -3.0 | 0.64
Cc1cc(N2CCOCC2)n2nc(C)c(-c3ccccc3)c2n1 | 1.5 | 1.7 | 1.4 | 0% | -6 | 3.6 | 0.69
CCOCCn1c(N2CCCC2)nc2c1c(=O)n(C)c(=O)n2C | -0.7 | 2.7 | 4.6 | / | 2 | 1.7 | 0.7
CCOc1ccccc1NC(=O)/C=C/c1ccccc1[N+](=O)[O-] | -1.1 | 6.8 | 5.2 | / | -16 | 0.8 | 0.68

(continued)
SMILES | A1 inh | UCH37 DUB inh | LANA-H2B inh | Vif TR-FRET | Beta2AR agonist | HNF4A DNA FP | E coli growth
CCCCCN(C(=O)CCC(=O)OCC(=O)N(CC)c1ccccc1)c1c(N)n(CCCC)c(=O)[nH]c1=O | -0.5 | 4.6 | 2.1 | -6% | -4 | -2.5 | 0.72
O=C(N/N=C/c1cccnc1)c1[nH]ncc1Br | -6.0 | / | / | / | -1 | 2.3 | /
CC(C)=C(NC(=O)c1ccccc1)C(=O)N1CCOCC1 | -0.1 | 1.4 | 2.0 | 21% | 7 | 2.1 | 0.69
O=C(COC(=O)c1ccccc1Sc1ccc(C(F)(F)F)cc1[N+](=O)[O-])NC(=O)NC1CCCC1 | 0.2 | 6.7 | -0.1 | -3% | -6 | -3.0 | 0.72
CCOC(=O)CN1CCc2c(C)nc3c(-c4ccc(OC)c(OC)c4)cnn3c21 | 0.7 | -8.2 | 1.0 | 13% | -4 | 1.3 | 0.72
COc1ccccc1N=CC=C1OC(C)(C)C(C)(C)O1 | -0.2 | -33 | -2.4 | 14% | 0 | 1.7 | /
CCCN1CCN(C(=O)c2ccc3nc(CC)c(CC)nc3c2)CC1 | 1.0 | 5.6 | -5.3 | 0% | 2 | 2.2 | 0.66
O=C(Nc1nnc(C2CC2)s1)C1CC(=O)N(c2ccc3c(c2)OCCO3)C1 (stereo not drawn) | 1.4 | 2.1 | / | 21% | -2 | -5.6 | 0.7
Cc1ccc(C)c(N(C)C(=O)COc2cc(=O)n(C)c3ccccc23)c1 | -0.2 | 1.3 | 4.9 | 1% | -19 | 0.1 | 0.72
O=c1c2ccccc2[nH]c(=S)n1CCCN1CCC(Cc2ccccc2)CC1 | 0.9 | 2.1 | -1.1 | -17% | -5 | 0.1 | 0.67

Source: PubChem BioAssay
